High-throughput results deposited in PubChem BioAssay by ICCB-Longwood Screening Facility, Harvard Medical School.
Ba CapD inh: blocks the Bacillus anthracis CapD enzyme; AID 492967; purified CapD enzyme, fluorescence intensity read-out; hits give low values; some hits fall short of the stated cut; z-score (no concentration beside the values); actives 0.23% (n = 140,000);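 active = z-score under -4 in either of two replicates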;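 also: stock transfer was 100 nL into about 40 µL; score is relative to mean and spread of the plate; one replicate is shown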
AID504770: growth inhibitors of E. coli YBA685 in a screen for V. cholerae RctB (chromosome II replication) inhibitors. E. coli YBA685 rctB-dependent plasmid, OD600 growth, 3 h; hits give low values. z-score (test concentration not listed). actives 0.27% (n = 130,000). AID 504770;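 active = z-score under -2 on both plates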;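 also: wells of about 30 µL received 100 nL stock; score is relative to mean and SD of the test wells; the first replicate is given; strong numbers were not always called active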
* hit, by the source's call; i = inactive; x = no result given.

SMILES	Ba CapD inh	AID504770
O=C(c1cc2cc(Br)ccc2o1)N1CCc2c([nH]c3ccccc23)C1c1ccc([N+](=O)[O-])cc1 (centres undefined)	-0.23	x
C=CCN1C=C/C(=C\C=C(C#N)C#N)c2ccccc21	x	-0.45
COc1ccc(C(C)C)cc1S(=O)(=O)N1CCCCC1C (centres undefined)	0.7	-0.2
Cc1cccc(C)c1NC(=O)CNC(=O)C(C)Oc1ccccc1C#N (centres undefined)	x	1.6
CCC(C(=O)N1CCCCC1C)c1ccccc1 (centres undefined)	0.39	-0.2
C#CCSc1nc(-c2cccs2)cc(C(F)(F)F)c1C#N	85	0.65
O=C(O)c1ccccc1C(=O)N(Cc1ccccn1)Cc1ccccn1	-0.3	-0.9
CCN1C(=O)/C(=C2\SC(=O)N(Cc3ccccc3)C2=O)c2ccccc21	0.15	-0.3
O=C1C(=O)N(CCCN2CCOCC2)C(c2cccs2)/C1=C(\O)c1ccccc1 (centres undefined)	-0.99	-0.1
COc1ccc(N2CCN(C(=O)CCCN3C(=O)C4C5C=CC(C5)C4C3=O)CC2)cc1 (centres undefined)	0.51	x
CCc1ccc(NC(=O)c2[nH]nc3c2CSc2ccccc2-3)cc1	0.53	-0.3
CN(C)S(=O)(=O)CC12CCC(CC1=O)C2(C)C (centres undefined)	0.14	-0.5
CCC1CCc2c(sc3ncnc(N4CCOCC4)c23)C1 (centres undefined)	0.04	-0.95
COc1ccc(C(=O)c2sc3nc(-c4ccco4)cc(C(F)(F)F)c3c2N)cc1OC	0.67	-1
C/C(=N/O)c1cc(C(C)(C)C)c(O)c(C(C)(C)C)c1	-0.14	-0.55
CCOc1ccc(C(=O)OC2CCCN(C)C2)cc1 (centres undefined)	-0.54	-0.9
CCn1c(CSc2nc3ccccc3s2)nnc1SCc1ccc(C(=O)OC)o1	x	0.25
N#CCSc1ccc(-c2ccco2)nn1	x	-0.95
Cn1c(SCc2ccc(Br)cc2F)nnc1C(F)(F)F	-0.36	0.5
Cc1cc(=O)n(CC(C)C)c(O)c1C#N	7.2	0.1
CC(Oc1ccccc1)c1nc2ccccc2[nH]1 (centres undefined)	0.48	-0.7
Cc1nc2sccn2c1C(=O)C(F)(F)F	x	-0.4
COc1cc(OC)nc(C(SCCNC(=O)Nc2ccc(F)cc2F)c2ccccc2)n1 (centres undefined)	-0.63	x
COC(=O)c1ccccc1NC(=O)CN1CCC(C)CC1	0.06	-0.65
O=C(Oc1ccc(OC(=O)N2CCOCC2)cc1)N1CCOCC1	x	0.25
CCOc1cccc2cc(-c3nc4ccccc4[nH]3)c(=O)oc12	i	-0.55
CCCCN(Cc1ccccc1)S(=O)(=O)c1cccc2nsnc12	-1.4	x
Cc1ccc(-c2nc(C#N)c(NCc3ccc4c(c3)OCO4)o2)cc1	66	-0.45
CCc1nnc(NC(=O)C2Cc3ccccc3C(=O)O2)s1 (centres undefined)	-0.23	-0.6
NNc1nc(Nc2ccccc2[N+](=O)[O-])nc(OC(C(F)(F)F)C(F)(F)F)n1	-0.89	x
CCOC(=O)C1=C(C)N=c2s/c(=C\c3cc(C)n(-c4ccc([N+](=O)[O-])cc4)c3C)c(=O)n2C1c1ccc(OC)cc1 (centres undefined)	-0.46	x
COc1cc(/C=N/n2nnnc2N)ccc1OCc1ccc(Cl)cc1Cl	5.2	0.4
O=C1CCCC2=C1C(c1cc(Br)ccc1F)n1ncnc1N2 (centres undefined)	-0.22	x
COc1ccc(/C=C2\c3cc([N+](=O)[O-])ccc3-c3c2cc([N+](=O)[O-])cc3[N+](=O)[O-])cc1OC	-0.54	x
O=C1Nc2ccc(Br)cc2C(c2ccccc2Cl)=N/C1=C/c1ccc(Br)cc1	-0.45	x
Cc1cc(Cl)nc(C(C)C)n1	x	-0.2
CCc1cc2c(N3CCN(c4nc(C)cc(C)n4)CC3)ncnc2s1	1.8	0.7
C=C(C)CSc1nc2ccccc2s1	x	-0.45
CC(C)N(Cn1nc(-c2ccccc2)n(-c2ccccc2)c1=S)C(C)C	x	-0.3
CCn1nnc2c(NC3CCCCC3)ncnc21	x	-0.15
CCSc1nccc(C(F)(F)F)c1C(=O)Nc1c(C)cccc1C	-0.36	-1
O=C(O)C(O)Cc1c[nH]c2ccccc12 (centres undefined)	-0.13	-0.3
Cc1ccc(S(=O)(=O)NC(=O)Nc2[nH]n(-c3ccccc3)c(=O)c2C2=NCCCCC2)cc1	x	0.6
O=C(CSc1nc2ccccc2nc1C(F)(F)F)Nc1ccccc1	-0.21	x
Cc1cc(C(F)(F)F)c(C#N)c(SCc2ccccc2[N+](=O)[O-])n1	-0.23	x
Cc1cc(CN2CCN(Cc3ccccc3)CC2)cs1	0.24	-0.9
N#Cc1cc(-c2ccccc2)oc1/N=C/c1ccc(Br)s1	-0.45	x
COC(=O)c1ccc(CC(C#N)(c2ccccc2)c2ccccc2)o1	x	0.3
COc1cccc(C2CC(c3cccs3)=NN2C(=O)CSc2nnc(CNC(=O)Cc3ccccc3)n2C)c1OC (centres undefined)	1.2	x
CC1(C)CC(NC(=O)/C=C/C(=O)NC2CC(C)(C)NC(C)(C)C2)CC(C)(C)N1	-0.38	-1

14 consecutive entries from above:
SMILES	Ba CapD inh	AID504770
CCc1cc2c(N3CCN(c4nc(C)cc(C)n4)CC3)ncnc2s1	1.8	0.7
C=C(C)CSc1nc2ccccc2s1	x	-0.45
CC(C)N(Cn1nc(-c2ccccc2)n(-c2ccccc2)c1=S)C(C)C	x	-0.3
CCn1nnc2c(NC3CCCCC3)ncnc21	x	-0.15
CCSc1nccc(C(F)(F)F)c1C(=O)Nc1c(C)cccc1C	-0.36	-1
O=C(O)C(O)Cc1c[nH]c2ccccc12 (centres undefined)	-0.13	-0.3
Cc1ccc(S(=O)(=O)NC(=O)Nc2[nH]n(-c3ccccc3)c(=O)c2C2=NCCCCC2)cc1	x	0.6
O=C(CSc1nc2ccccc2nc1C(F)(F)F)Nc1ccccc1	-0.21	x
Cc1cc(C(F)(F)F)c(C#N)c(SCc2ccccc2[N+](=O)[O-])n1	-0.23	x
Cc1cc(CN2CCN(Cc3ccccc3)CC2)cs1	0.24	-0.9
N#Cc1cc(-c2ccccc2)oc1/N=C/c1ccc(Br)s1	-0.45	x
COC(=O)c1ccc(CC(C#N)(c2ccccc2)c2ccccc2)o1	x	0.3
COc1cccc(C2CC(c3cccs3)=NN2C(=O)CSc2nnc(CNC(=O)Cc3ccccc3)n2C)c1OC (centres undefined)	1.2	x
CC1(C)CC(NC(=O)/C=C/C(=O)NC2CC(C)(C)NC(C)(C)C2)CC(C)(C)N1	-0.38	-1

(further entries)
SMILES	Ba CapD inh	AID504770
CCOC(=O)C1=C(C)NC2=C(C(=O)c3ccccc32)C1c1ccc([N+](=O)[O-])cc1 (centres undefined)	-0.17	x
CCOc1nc(NCCc2ccc(OC)c(OC)c2)nc(N2CCN(c3ccc(OC)cc3)CC2)n1	0.26	-0.8
c1cc(CNc2ccc3c(c2)OCCO3)ccn1	x	-0.15
C=CCNC(=O)c1cc(-c2ccccc2O)on1	0.36	-0.35
Cc1cccc(N(CC(N)=O)S(C)(=O)=O)c1C	1.6	-0.5
COc1ccc(-c2cc(C(=O)NCCc3ccccc3)nc3n[nH]c(-c4ccccc4)c23)cc1OC	83	0.55
Cc1nnc(SCC(=O)Nc2ccc3nc(SCC(=O)NC4CCCCC4)sc3c2)s1	0.03	x
C=C(C)Cc1c(C)nc(SC)[nH]c1=O	0.38	x
COC(=O)c1sc(Br)c(Br)c1OC	0.46	1.2
CCOC(=O)CSc1nc2c(sc(=S)n2CC2CCCO2)c(=O)n1-c1ccc(F)cc1 (centres undefined)	-0.95	x

The final two compounds of the part before come first, to join the parts:
SMILES	Ba CapD inh	AID504770
COC(=O)c1sc(Br)c(Br)c1OC	0.46	1.2
CCOC(=O)CSc1nc2c(sc(=S)n2CC2CCCO2)c(=O)n1-c1ccc(F)cc1 (centres undefined)	-0.95	x
O=C(CSc1nnc(-c2ccc(Cl)cc2Cl)n1Cc1ccco1)c1ccc[nH]1	x	2.1
CC1=NN(c2ccccc2)C(=O)/C1=C/c1ccc(OCc2ccccc2)cc1	-1.4	x
Nc1cccc2c1C(=O)N(C(=O)c1ccc(S(=O)(=O)N3CCCCCC3)cc1)C2=O	x	-1.8
CCc1n[nH]c(=O)n1Cn1c(CC)n[nH]c1=O	x	-0.05
O=C(NCCN1CCOCC1)c1ccc(-n2ccc3ccccc32)s1	56	-0.85
CCCCC(=O)N1c2ccc(C)cc2C(=C2SC(C(=O)OC)=C(C(=O)OC)S2)C(=S)C1(C)C	-0.47	x
Cc1ccc(-n2c3nc(=O)[nH]c(=O)c-3cc3ccccc32)cc1Cl	0.51	x
O=C(NCc1ccco1)c1ccccc1NCCOc1ccc(Cl)cc1	x	-1.2
O=C(N/N=C/c1cc(Cl)cc(Cl)c1Cl)c1ccccc1Oc1ccccc1	0.35	x
CCOc1ccc(OCC)c(N2C(=O)NC(=O)/C(=C\c3ccc(OC)c(OC)c3OC)C2=O)c1	0.43	x
Cc1nn(Cc2ccccc2)c(Cl)c1/C=N/n1c(C)nc2ccccc2c1=O	x	-0.35
O=C1NC(c2cc3c(cc2Cl)OCO3)Nc2sc3c(c21)CCCC3 (centres undefined)	-0.1	x
CC(=O)NC1C(=O)N(Cc2ccccc2)c2ccccc21 (centres undefined)	1.3	-0.2
O=C(Nc1ccc(Oc2ccccc2)cc1)c1ccc(F)c(S(=O)(=O)N2CCC3(CC2)OCCO3)c1	-0.58	x
CCCOc1ccc(C2C3=C(CC(C)(C)CC3=O)Nc3ccccc3N2C(=O)C(F)(F)F)cc1OC (centres undefined)	-0.84	x
O=C(Cn1nnc(-c2ccccc2Br)n1)N(Cc1ccccc1)C1CCS(=O)(=O)C1 (centres undefined)	x	0.25
CC12CC[C@H]3[C@@H](CCC4(O)C[C@H](O)CCC34/C=N/NC(=O)c3ccccc3[N+](=O)[O-])C1(O)CCC2C1=CC(=O)OC1 (some centres undefined)	-0.39	x
Cc1ccc(S(=O)(=O)N(CC(O)CN2CCCCC2)c2cccc(C)c2)cc1 (centres undefined)	0.41	x
Cc1cc(=O)n(CC(C)O)c(O)c1C#N (centres undefined)	8.6	-0.35
CC(=O)N1CCc2cc(N=NC3=C(O)CCCC3=O)ccc21	x	1.2
C=CCn1cc(C(=O)NCCN2CCCCCC2)c(=O)c2cc(S(=O)(=O)N(CC)CC)ccc21	5.6	-0.7
COc1ccccc1Oc1ccc(S(=O)(=O)N2CCOCC2)cc1	-1.2	0.85
O=C(Nc1ccc(Br)cc1)c1cnc2ccccn2c1=O	-0.82	0.85
CCN(CC)C(=O)C1CCN(S(C)(=O)=O)CC1	x	1.5
Cc1ccc(C(=O)COC(=O)c2cccc(N3C(=O)C4CC=CC(C)C4C3=O)c2)cc1[N+](=O)[O-] (centres undefined)	-0.61	x
Cc1ccc(Cl)cc1N1CCN(C(=O)c2ccccc2N(Cc2ccccc2)S(C)(=O)=O)CC1	0.9	0.6
N#Cc1c(-c2ccco2)cc(-c2cccc(S(=O)(=O)N3CCCCC3)c2)n2c1nc1ccccc12	x	1.9
COc1ccc(C2=NN(CC(=O)NCc3ccc(C)cc3)C(=O)CC2)cc1	0.14	-0.7
COc1ccc(CCC(=O)Nc2cc(Cl)ccc2Sc2nncn2C)cc1	x	-0.5
O=C(c1nsc2ccccc12)N1CCCCC1	0.71	1.2
NC(=O)Cn1cnc2ccccc21	-0.36	0.1
Nc1ncc(Br)cc1S(=O)(=O)Nc1cccc(Cl)c1	2.3	1
COc1ccccc1N1CCN(C(=O)CSc2nc3ccccc3c(=O)n2NC(=O)Cc2ccccc2)CC1	-0.68	x
CC(NC(=O)CSc1n[nH]c(N)n1)C1CC2CCC1C2 (centres undefined)	x	0.3
C=CCn1c(C)cc(C(=O)COC(=O)C2CC(=O)N(Cc3ccccc3)C2)c1C (centres undefined)	x	0.15
C1CCC(Nc2nnnc3c2sc2nc(N4CCOCC4)c4c(c23)CCCC4)CC1	-0.05	x
CCCNC(=O)c1cc2sc(Cl)cc2n1CC	-0.05	-0.6
Oc1ccccc1N=Cc1ccncc1	0.57	0.25
CN1C(=O)/C(=C\c2ccc(O)cc2)SC1=S	-0.21	0.4
COc1cccc(NC(=O)CCSc2nnc3scc(-c4ccccc4)n23)c1	-0.41	0.4
Cc1noc(C)c1CN(C(=S)Nc1cccc(Cl)c1)c1ccccc1	x	0.25
Nc1cc(=O)[nH]c(SCc2c(Cl)cccc2Cl)n1	-0.28	x
O=C(CSc1nc2ccccc2o1)NN=C1CCCC1	x	-0.25
CCCCNc1nc(=S)nc(N(C)C)[nH]1	0.28	-0.65
CC(N=C1SCCN1C(=O)c1ccc(NC(N)=O)cc1)c1ccccc1 (centres undefined)	x	-0.4
C/C=C/C=N/N=C/C1=C(N2CCOCC2)C(=C\c2ccccc2)/CC1	x	-0.35
CC(=O)Nc1ccc(S(=O)(=O)NCc2nc(-c3ccccc3)no2)cc1	0.23	-0.65
N#CC(C#N)=c1ccc(=C(C#N)c2ccc(N3CCCC3)cc2)cc1	0.21	0.75
CCCc1ccc(-c2cc(N)n(-c3ccccc3)n2)cc1	2.2	0.55
O=C(Nc1ccc2c(c1)OCO2)Oc1ccccc1	0.33	0.05

Remaining list, next part
SMILES	Ba CapD inh	AID504770
COC(=O)c1sccc1NC(=O)c1cc(S(=O)(=O)N(C)C)oc1C	2	-0.3
O=C(Nc1ccc(Cl)cc1Cl)OCc1cc(-c2ccccc2Cl)on1	-0.33	x
Nc1nc(SCC(=O)NCCc2ccccc2)n[nH]1	x	0.3
NC(=S)N/N=C/c1ccccc1OCC(=O)O	x	0.2
CCC(C)(C)NC(=O)CCn1ccc(C)n1	-0.32	-1.2
O=C(Sc1ccc(Cl)cc1)c1cnn(-c2ccccc2)c1C(F)(F)F	0.21	-0.3
O=C(O)c1ccc(OCc2cccc(Cl)n2)cc1	0.09	x
CC(=O)NC(C(=O)N1CCN(S(=O)(=O)c2cccs2)CC1)C(C)C (centres undefined)	x	-1.8
O=C(OCc1cccc(F)c1F)N1CCN(Cc2ccccc2Sc2ccc(Cl)cc2)CC1	-1.2	x
Cc1cc(N2CCN(S(=O)(=O)c3ccc(Cl)cc3)CC2)c2ccccc2n1	0.53	x
NC(=O)N1C(=O)C=CC1=O	x	-8.5*
